NSD2 HMT inh = NSD2 histone methyltransferase inhibitors, primary screen, biochemical, AlphaScreen, single concentration, set 2; Histone-lysine N-methyltransferase NSD2 (Homo sapiens), O96028; NSD2 peptide methylation, 120 min; inhibition, % at 12.5 µM; 0.54% of 310,000 active; in the data active = inhibition above about 50%
dFosB act = activators of delta FosB homodimer, primary screen, biochemical, fluorescence polarization, TAMRA-CDK5 oligo, single point; Protein FosB (Mus musculus), P13346; purified delta FosB; percent of positive-control signal above neutral wells; activation, % at 25 µM; 0.99% of 340,000 active; AID 493131, 2011;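 active = mean activation above about 17%, with every replicate also reaching it, limit read from the data, passing the limit was not always enough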;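 note: fluorescence polarization rise as delta FosB binds a TAMRA Cdk5 AP-1 oligo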
Target sequence (P13346 whole entry, looked up): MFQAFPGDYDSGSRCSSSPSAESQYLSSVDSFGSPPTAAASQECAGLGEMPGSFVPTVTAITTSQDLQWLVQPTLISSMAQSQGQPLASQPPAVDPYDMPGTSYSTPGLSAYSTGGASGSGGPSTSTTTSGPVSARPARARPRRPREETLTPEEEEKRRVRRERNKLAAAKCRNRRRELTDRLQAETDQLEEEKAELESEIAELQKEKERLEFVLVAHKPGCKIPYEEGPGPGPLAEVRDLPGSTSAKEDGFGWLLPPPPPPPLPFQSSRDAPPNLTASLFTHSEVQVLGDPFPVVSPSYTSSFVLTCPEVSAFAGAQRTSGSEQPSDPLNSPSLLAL
CDK5 p35 inh = inhibitors of human CDK5/p35 kinase, primary screen, biochemical, single concentration; 0.01% of 330,000 active; inhibition, % at 10 µM; Recombinant CDK5/p35, ADP-Glo luminescence, 60 min; Cyclin-dependent kinase 5 (Homo sapiens) + Cyclin-dependent kinase 5 activator 1 (Homo …; AID 488839, 2010;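 active = highest replicate inhibition of at least 50% and at least 75% of replicates reaching 50%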;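 note: plate controls were DMSO neutral control for no effect and GW8510 at 10 µM for full effect; many of its hits are not listed in these tables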
RTF Ca sens inh = cardiac RTF calcium sensitivity inhibitors, primary screen, biochemical, IANBD-TnC fluorescence, EC70 calcium. IANBD-labeled cardiac RTF, Ca2+ fluorescence. inhibition, % at 7.15 µM. 0.12% of 340,000 active. AID 493244, 2011;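 active = inhibition above the mean inhibition of all tested compounds plus 3 SD, cut at about 17% in these data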;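 note: assay run at fixed EC70 calcium of 1.6 mM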
RTF Ca sens act = cardiac RTF calcium sensitivity activators, primary screen, biochemical, IANBD-TnC fluorescence, EC20 calcium. 0.24% of 340,000 active. Troponin I, cardiac muscle (Homo sapiens) + Troponin T, cardiac muscle (Homo sapiens) + …. activation, % at 7.2 µM. IANBD-labeled TnC RTF fluorescence at EC20 calcium; 0% EC20 calcium, 100% full calcium. AID 493008, 2010;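 active = activation above the mean over all tested compounds plus 3 SD, cut at about 30% in these data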;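 note: rise in fluorescence read as greater calcium sensitivity of cardiac thin filaments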
Rtt109 HAT inh = inhibitors of C. albicans Rtt109/Vps75 HAT, primary screen, biochemical, ThioGlo CoA-SH fluorescence, plate reader; Histone acetyltransferase RTT109 (Candida albicans (strain SC5314 / ATCC MYA-2876)), …; purified Rtt109/Vps75, 4 h; inhibition, % at 34.9 µM; 0.16% of 330,000 active;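 active = inhibition of at least 50% in every replicate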
Target sequence (Q5AAJ8 whole entry, looked up): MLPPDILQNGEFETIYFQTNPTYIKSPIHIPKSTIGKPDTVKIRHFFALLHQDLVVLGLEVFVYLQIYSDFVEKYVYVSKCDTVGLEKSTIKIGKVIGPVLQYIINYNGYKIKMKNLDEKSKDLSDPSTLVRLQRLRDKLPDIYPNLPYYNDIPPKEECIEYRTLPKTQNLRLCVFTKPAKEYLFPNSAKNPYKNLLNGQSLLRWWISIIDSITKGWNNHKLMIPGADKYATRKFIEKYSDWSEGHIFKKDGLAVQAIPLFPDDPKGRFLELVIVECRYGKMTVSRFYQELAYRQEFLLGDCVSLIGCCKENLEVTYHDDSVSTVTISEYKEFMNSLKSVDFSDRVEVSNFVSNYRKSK
Starred values were filed as active, the others as inactive; & = joins results of further samples. A portion of the library, so the mix of outcomes need not match the whole.

Results for O=C1NC[C@H](c2ccccc2)OC(=O)[C@@H](Cc2ccc(F)cc2)CC/C=C/C[C@H]1CC(=O)N(CCO)Cc1ccccc1 ?
dFosB act: 3.5; CDK5 p35 inh: 0.0; RTF Ca sens inh: -45.7; RTF Ca sens act: -2.1; Rtt109 HAT inh: 9.0

How did O=C1NC[C@@H](c2ccccc2)OC(=O)[C@@H](Cc2ccc(F)cc2)CC/C=C/C[C@H]1CC(=O)N(CCO)Cc1ccccc1 do in these assays?
dFosB act: -5.4; CDK5 p35 inh: -1.1; RTF Ca sens inh: -27.3; RTF Ca sens act: 3.9; Rtt109 HAT inh: 2.0

Results for COc1cc2c(cc1OC)C1C(=O)c3cc(OS(C)(=O)=O)c(OC)cc3C1N(C)C2=O (centres undefined) ?
NSD2 HMT inh: -2.5; dFosB act: -14.9; CDK5 p35 inh: -0.5; RTF Ca sens inh: -0.9; RTF Ca sens act: -1.8; Rtt109 HAT inh: -1.3

How did CN1CCN(C2=Nc3cc(Cl)ccc3Nc3ccccc32)CC1 do in these assays?
dFosB act: -0.7; CDK5 p35 inh: -0.4; RTF Ca sens inh: -6.5; RTF Ca sens act: -1.1; Rtt109 HAT inh: 2.1

How did CC(C(=O)O)c1cccc(C(=O)c2ccccc2)c1 (centres undefined) do in these assays?
dFosB act: -0.4; CDK5 p35 inh: -0.5; RTF Ca sens inh: 9.3; RTF Ca sens act: -2.8; Rtt109 HAT inh: 2.9

What do the screens show for `CC(C)NCC(O)COc1cccc2[nH]ccc12` (centres undefined)?
dFosB act: 1.5; CDK5 p35 inh: -4.7; RTF Ca sens inh: -0.7; RTF Ca sens act: 15.8; Rtt109 HAT inh: -11.1

How did N#Cc1ccccc1CSc1nc(O)cc(=O)[nH]1 do in these assays?
NSD2 HMT inh: 25.2; dFosB act: 0.0; CDK5 p35 inh: 0.5; RTF Ca sens inh: -9.6; RTF Ca sens act: -3.0; Rtt109 HAT inh: -3.0

What do the screens show for `Cc1nnc(SCC2=C(C(=O)O)N3C(=O)[C@@H](NC(=O)Cn4cnnn4)[C@H]3SC2)s1`?
dFosB act: -4.5&-2.1; CDK5 p35 inh: -0.6&-0.7; RTF Ca sens inh: -6.2&-18.3; RTF Ca sens act: -0.4&4.0; Rtt109 HAT inh: 1.5&-5.8

What do the screens show for `CCCCc1oc2ccccc2c1C(=O)c1cc(I)c(OCCN(CC)CC)c(I)c1`?
dFosB act: 7.0; CDK5 p35 inh: -1.3; RTF Ca sens inh: 2.6; RTF Ca sens act: 2.5; Rtt109 HAT inh: 45.3

Results for Cc1nc(=O)c(-c2ccccc2)c(C)n1-c1ccc(O)c(C(=O)O)c1 ?
NSD2 HMT inh: -1.1; dFosB act: -2.3; CDK5 p35 inh: 0.5; RTF Ca sens inh: 1.9; RTF Ca sens act: 3.0; Rtt109 HAT inh: -0.2

How did COc1ccc(/C(N)=N/OC(=O)CSc2ccccc2)cc1 do in these assays?
NSD2 HMT inh: -2.1; dFosB act: 0.8; CDK5 p35 inh: 0.4; RTF Ca sens inh: 7.0; RTF Ca sens act: -6.4; Rtt109 HAT inh: -4.7

How did O=C1NC[C@H](c2ccccc2)OC(=O)[C@H](Cc2ccc(F)cc2)CC/C=C/C[C@@H]1CC(=O)N(CCO)Cc1ccccc1 do in these assays?
dFosB act: 1.2; CDK5 p35 inh: 0.0; RTF Ca sens inh: 4.1; RTF Ca sens act: -5.0; Rtt109 HAT inh: -1.5

What do the screens show for `CC1(C)[C@H](C(=O)O)N2C(=O)C[C@H]2S1(=O)=O`?
dFosB act: -1.0; CDK5 p35 inh: 0.5; RTF Ca sens inh: -5.9; RTF Ca sens act: 2.5; Rtt109 HAT inh: -2.6

How did Cc1ccc2c(CC(=O)N3CCN(S(=O)(=O)c4ccc5c(c4)OCCO5)CC3)coc2c1 do in these assays?
NSD2 HMT inh: -0.3; dFosB act: -5.3; CDK5 p35 inh: 0.9; RTF Ca sens inh: 2.3; RTF Ca sens act: 3.9; Rtt109 HAT inh: 17.6

What do the screens show for `Cc1ccc2c(c1)c(Sc1ccccc1)c(CC(=O)O)n2C`?
NSD2 HMT inh: 24.8; dFosB act: 2.4; CDK5 p35 inh: -2.3; RTF Ca sens inh: -2.2; RTF Ca sens act: -4.5; Rtt109 HAT inh: 1.4

What do the screens show for `O=C(O)Cn1nc(C(F)(F)F)c2c1CCCCC2`?
dFosB act: -4.7; CDK5 p35 inh: -1.3; RTF Ca sens inh: -12.5; RTF Ca sens act: 4.1; Rtt109 HAT inh: 8.9

What do the screens show for `COC(=O)Nc1sc(C)nc1-c1ccccc1`?
NSD2 HMT inh: -4.4; dFosB act: -4.4; CDK5 p35 inh: -2.3; RTF Ca sens inh: -5.6; RTF Ca sens act: 1.5; Rtt109 HAT inh: -0.5

What do the screens show for `CCOC(=O)C1=C(COCCN)NC(C)=C(C(=O)OC)C1c1ccccc1Cl` (centres undefined)?
dFosB act: -6.8&7.3&1.1; CDK5 p35 inh: -1.8&0.7&-0.7; RTF Ca sens inh: 9.9&-0.7&-21.6; RTF Ca sens act: -4.2&-5.9&5.4; Rtt109 HAT inh: -14.1&-2.1&0.4

What do the screens show for `O=C(CCCN1CCC(O)(c2ccc(Cl)cc2)CC1)c1ccc(F)cc1`?
dFosB act: 6.5; CDK5 p35 inh: 0.9; RTF Ca sens inh: 3.7; RTF Ca sens act: 3.8; Rtt109 HAT inh: 6.9&12.6

What do the screens show for `O=C(CSc1ncnc2ccccc12)NCc1ccc2c(c1)OCO2`?
NSD2 HMT inh: 4.5; dFosB act: -3.2; CDK5 p35 inh: 0.4; RTF Ca sens inh: -8.8; RTF Ca sens act: 15.2; Rtt109 HAT inh: -0.8

What do the screens show for `CC(=O)Oc1ccc(-c2cc3ccc(OC(C)=O)cc3oc2=O)cc1`?
NSD2 HMT inh: -2.3; dFosB act: 0.3; CDK5 p35 inh: -1.3; RTF Ca sens inh: 3.8; RTF Ca sens act: -1.1; Rtt109 HAT inh: -6.3

Results for O=C1NC[C@@H](c2ccccc2)OC(=O)[C@H](Cc2ccc(F)cc2)CC/C=C/C[C@H]1CC(=O)N(CCO)Cc1ccccc1 ?
dFosB act: -7.8; CDK5 p35 inh: -2.5; RTF Ca sens inh: -3.1; RTF Ca sens act: 1.2; Rtt109 HAT inh: 5.6

What do the screens show for `O=C1NC[C@@H](c2ccccc2)OC(=O)[C@@H](Cc2ccc(F)cc2)CC/C=C/C[C@@H]1CC(=O)N(CCO)Cc1ccccc1`?
dFosB act: -0.8; CDK5 p35 inh: -0.9; RTF Ca sens inh: -9.3; RTF Ca sens act: -0.2; Rtt109 HAT inh: 15.0

Copied from the results shown for reference:
What do the screens show for `COC(=O)Nc1sc(C)nc1-c1ccccc1`?
NSD2 HMT inh: -4.4; dFosB act: -4.4; CDK5 p35 inh: -2.3; RTF Ca sens inh: -5.6; RTF Ca sens act: 1.5; Rtt109 HAT inh: -0.5

What do the screens show for `CCOC(=O)C1=C(COCCN)NC(C)=C(C(=O)OC)C1c1ccccc1Cl` (centres undefined)?
dFosB act: -6.8&7.3&1.1; CDK5 p35 inh: -1.8&0.7&-0.7; RTF Ca sens inh: 9.9&-0.7&-21.6; RTF Ca sens act: -4.2&-5.9&5.4; Rtt109 HAT inh: -14.1&-2.1&0.4

What do the screens show for `O=C(CCCN1CCC(O)(c2ccc(Cl)cc2)CC1)c1ccc(F)cc1`?
dFosB act: 6.5; CDK5 p35 inh: 0.9; RTF Ca sens inh: 3.7; RTF Ca sens act: 3.8; Rtt109 HAT inh: 6.9&12.6

What do the screens show for `O=C(CSc1ncnc2ccccc12)NCc1ccc2c(c1)OCO2`?
NSD2 HMT inh: 4.5; dFosB act: -3.2; CDK5 p35 inh: 0.4; RTF Ca sens inh: -8.8; RTF Ca sens act: 15.2; Rtt109 HAT inh: -0.8

What do the screens show for `CC(=O)Oc1ccc(-c2cc3ccc(OC(C)=O)cc3oc2=O)cc1`?
NSD2 HMT inh: -2.3; dFosB act: 0.3; CDK5 p35 inh: -1.3; RTF Ca sens inh: 3.8; RTF Ca sens act: -1.1; Rtt109 HAT inh: -6.3

Results for O=C1NC[C@@H](c2ccccc2)OC(=O)[C@H](Cc2ccc(F)cc2)CC/C=C/C[C@H]1CC(=O)N(CCO)Cc1ccccc1 ?
dFosB act: -7.8; CDK5 p35 inh: -2.5; RTF Ca sens inh: -3.1; RTF Ca sens act: 1.2; Rtt109 HAT inh: 5.6

What do the screens show for `O=C1NC[C@@H](c2ccccc2)OC(=O)[C@@H](Cc2ccc(F)cc2)CC/C=C/C[C@@H]1CC(=O)N(CCO)Cc1ccccc1`?
dFosB act: -0.8; CDK5 p35 inh: -0.9; RTF Ca sens inh: -9.3; RTF Ca sens act: -0.2; Rtt109 HAT inh: 15.0

Screening results deposited in PubChem BioAssay by several laboratories.
